Env fusion inh = inhibitors of HIV Env-mediated cell fusion; inhibition, % at 12.3 µM; actives 1.1% (n = 360,000); HeLa-JRFL Env/CEM21 cell fusion, luciferase;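 active means mean replicate inhibition score of at least 50 and every replicate individually at or above 50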;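 further: 0% = plate neutral controls and 100% = maraviroc near 300 nM; one replicate is shown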
Yeast UUG start = alters start codon recognition fidelity in yeast; S. cerevisiae UUG-firefly luciferase reporter, luminescence/redox ratio; activity score, % at 18.7 µM; actives 0.13% (n = 350,000);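 active means replicate mean at a twofold rise or more, about +100% in these data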;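 further: firefly luciferase made from a UUG start codon reports start codon fidelity; reporter light over untreated wells divided by growth signal over untreated wells; some hits fall short of that in this replicate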
An asterisk follows results filed as active; [ ] = another dose, or the depositor's remark. Only part of the results is shown (hit frequency here may not be typical).

SMILES | Env fusion inh | Yeast UUG start
COc1ccc(S(=O)(=O)Nc2ccc3c(c2)C(=O)N([C@@H](C)CO)C[C@@H](C)[C@H](CN(C)C(=O)Nc2ccc(F)cc2)O3)cc1 | -29.2[16.7 µM] | 4.1
C[C@@H]1CCCCO[C@H](CN(C)C(=O)Nc2ccc(C(F)(F)F)cc2)[C@H](C)CN([C@@H](C)CO)C(=O)c2cc(NC(=O)c3ccncc3)ccc2O1 | 42.2[16.7 µM] | -2.9
Cc1noc(C)c1S(=O)(=O)Nc1cccc2c1O[C@@H](CN(C)Cc1ccncc1)[C@@H](C)CN([C@H](C)CO)C2=O | 11.7[16.7 µM] | -0.6
Cc1ccc(S(=O)(=O)N(C)C[C@@H]2Oc3ccc(NC(=O)Nc4ccc(F)cc4)cc3CC(=O)N([C@H](C)CO)C[C@H]2C)cc1 | 22.2[16.7 µM] | -11.2
C[C@@H]1CN([C@H](C)CO)C(=O)c2cccc(NS(=O)(=O)c3ccc(Cl)cc3)c2O[C@@H]1CN(C)C(=O)Nc1cccc2ccccc12 | 15.5[16.7 µM] | -7.4
C[C@H](CO)N1C[C@H](C)[C@@H](CN(C)Cc2ccc(Oc3ccccc3)cc2)Oc2ccc(NC(=O)Nc3ccc(F)cc3)cc2C1=O | -9.0[16.7 µM] | -6.6
C[C@@H]1CN([C@H](C)CO)C(=O)c2cc(-c3cccnc3)cnc2O[C@@H]1CN(C)C(=O)c1ccccc1F | 6.7[16.7 µM] | 2.1
C[C@H]1CN([C@@H](C)CO)C(=O)c2cc(-c3ccc(F)cc3)cnc2O[C@@H]1CN(C)C(=O)C1CCC1 | 3.7[16.7 µM] | 9.3
CC(=O)N(C)C[C@H]1Oc2cc(C3=CCCC3)ccc2S(=O)(=O)N([C@H](C)CO)C[C@H]1C | 9.4[16.7 µM] | 7.8
C[C@@H]1CN([C@@H](C)CO)S(=O)(=O)c2ccc(C#CC3CC3)cc2O[C@H]1CN(C)CC1CCCC1 | -7.1[16.7 µM] | 0.3
C[C@@H]1CCCCO[C@H](CN(C)CC2CCCCC2)[C@H](C)CN([C@H](C)CO)C(=O)c2cc(NC(=O)Nc3ccc(C(F)(F)F)cc3)ccc2O1 | 31.5[16.7 µM] | -0.1
COC(=O)C[C@@H]1CC[C@H]2[C@@H](COC[C@H](O)CN2C(=O)Nc2cccc(F)c2)O1 | -5.9[16.7 µM] | -3.4
C[C@@H]1CN([C@H](C)CO)C(=O)c2cc(NC(=O)CCCCCC(=O)Nc3ccccc3N)ccc2O[C@@H](C)CCCCO[C@@H]1CN(C)C(=O)C1CCCCC1 | -40.3[16.7 µM] | 32.3
CC(C)NC(=O)N(C)C[C@H]1OCCCC[C@@H](C)Oc2ccc(NS(=O)(=O)c3ccc(Cl)cc3)cc2C(=O)N([C@@H](C)CO)C[C@H]1C | -66.7[16.7 µM] | 3.3
CN1C(=O)c2cc(NC(=O)c3cnccn3)ccc2OC[C@@H]2O[C@H](CC(=O)O)CC[C@H]21 | -7.3[16.7 µM] | -4.1
O=C(N[C@@H]1C=C[C@H](CC(=O)N2CCOCC2)O[C@H]1CO)c1ccc2c(c1)OCO2 | 4.3[16.7 µM] | -13.7
C[C@H]1CCCCO[C@H](CN(C)C(=O)Nc2ccc(C(F)(F)F)cc2)[C@@H](C)CN([C@@H](C)CO)C(=O)c2cc(NC(=O)c3ccncc3)ccc2O1 | 56.3*[16.7 µM] | -11.1
C[C@@H]1CN([C@H](C)CO)S(=O)(=O)c2ccc(-c3cncnc3)cc2O[C@H]1CN(C)C(=O)NC1CCCC1 | -33.4[16.7 µM] | -14.4
C[C@@H]1CN([C@@H](C)CO)C(=O)c2cc(NC(=O)Nc3ccc4c(c3)OCO4)ccc2O[C@@H](C)CCCCO[C@@H]1CN(C)Cc1ccc2c(c1)OCO2 | -75.4[16.7 µM] | 6.5
Cc1noc(C)c1S(=O)(=O)Nc1ccc2c(c1)CC(=O)N([C@H](C)CO)C[C@@H](C)[C@@H](CN(C)C(=O)Nc1ccc(C(F)(F)F)cc1)O2 | 15.0[16.7 µM] | -11.0
CC(C)NC(=O)Nc1cccc2c1O[C@@H](CN(C)S(=O)(=O)c1cccs1)[C@@H](C)CN([C@@H](C)CO)C2=O | -12.9[16.7 µM] | -9.2
CCNC(=O)C[C@H]1CC[C@H](NS(=O)(=O)c2ccc(C)cc2)[C@H](CO)O1 | 24.6[16.7 µM] | 1.0
C[C@@H]1CCCCO[C@H](CN(C)S(=O)(=O)c2ccccc2)[C@@H](C)CN([C@@H](C)CO)C(=O)c2cc(NC(=O)c3ccncc3)ccc2O1 | 16.6[16.7 µM] | -7.1
Cc1ccc(S(=O)(=O)Nc2ccc3c(c2)C(=O)N([C@H](C)CO)C[C@H](C)[C@H](CN(C)C(=O)Nc2cccc4ccccc24)O3)cc1 | 8.2[16.7 µM] | -7.4
O=C(C[C@H]1CC[C@H](NC(=O)Nc2ccccc2)[C@H](CO)O1)NCc1cccc(F)c1 | 2.2[16.7 µM] | 3.8
C[C@H]1CN([C@@H](C)CO)C(=O)c2cccc(NS(C)(=O)=O)c2O[C@H]1CN(C)CC1CC1 | 10.4[16.7 µM] | 23.3
C[C@H](CO)N1C[C@H](C)[C@@H](CN(C)C(=O)NC2CCCCC2)OCCCC[C@H](C)Oc2ccc(NC(=O)C3CCCCC3)cc2C1=O | 0.9[16.7 µM] | 6.9
C[C@H](CO)N1C[C@H](C)[C@@H](CN(C)C(=O)c2ccncc2)Oc2ncc(C3=CCCCC3)cc2C1=O | 2.9[16.7 µM] | 10.3
CO[C@@H]1CN(C)C(=O)c2cc(NC(C)=O)ccc2OC[C@H](C)N(Cc2nccs2)C[C@H]1C | 5.9[16.7 µM] | -1.3
C[C@@H]1CCCCO[C@@H](CN(C)C(=O)CCC(F)(F)F)[C@H](C)CN([C@@H](C)CO)C(=O)c2cc(NC(=O)Nc3ccccc3)ccc2O1 | -6.5[16.7 µM] | -10.5
Cc1noc(C)c1NC(=O)Nc1ccc2c(c1)CC(=O)N([C@H](C)CO)C[C@H](C)[C@H](CN(C)C(=O)NC(C)C)O2 | 1.9[16.7 µM] | -3.9
COc1ccc(C#Cc2ccc3c(c2)[C@]2(C(=O)N3)[C@H](c3ccccc3OCCO)N3[C@H](c4ccccc4)[C@H](c4ccccc4)OC(=O)[C@H]3[C@@H]2C(=O)NC[C@H](O)c2ccccc2)cc1 | 43.9[16.7 µM] | 2.4
Cc1ccc(S(=O)(=O)Nc2ccc3c(c2)C(=O)N([C@@H](C)CO)C[C@H](C)[C@H](CN(C)Cc2ccncc2)OCCCC[C@H](C)O3)cc1 | -5.9[16.7 µM] | 48.9
C[C@H]1CN([C@@H](C)CO)C(=O)c2cc(NC(=O)Nc3ccc(C(F)(F)F)cc3)ccc2O[C@H]1CN(C)S(=O)(=O)c1ccc(F)cc1 | -6.8[16.7 µM] | -9.4
COCC(=O)N(C)C[C@@H]1Oc2ncc(C#C[C@H](C)O)cc2C(=O)N([C@@H](C)CO)C[C@@H]1C | -11.5[16.7 µM] | -9.7
COc1ccc(CN(C)C[C@H]2OCCCC[C@@H](C)Oc3ccc(NC(=O)CCC(F)(F)F)cc3C(=O)N([C@H](C)CO)C[C@H]2C)cc1 | 7.5[16.7 µM] | 6.6
COc1ccc(CNC(=O)C[C@H]2CC[C@@H]3[C@H](COc4ccc(NC(=O)C5CC5)cc4C(=O)N3C)O2)cc1 | -7.8[16.7 µM] | 24.6
COc1cccc(S(=O)(=O)N[C@H]2CC[C@H](CCn3cc(-c4ccc(F)cc4)nn3)O[C@H]2CO)c1 | -8.4[16.7 µM] | 14.2
COc1ccc(S(=O)(=O)N[C@H]2CC[C@H](CC(=O)NCCc3ccncc3)O[C@H]2CO)cc1 | -14.6[16.7 µM] | -5.5
Cc1noc(C)c1S(=O)(=O)Nc1ccc2c(c1)C(=O)N([C@@H](C)CO)C[C@@H](C)[C@@H](CN(C)Cc1ccc(Cl)c(Cl)c1)O2 | -8.3[16.7 µM] | 0.4

Shown in CSV form: five of the compounds above
Molecule,Env fusion inh,Yeast UUG start
CC(C)NC(=O)Nc1cccc2c1O[C@@H](CN(C)S(=O)(=O)c1cccs1)[C@@H](C)CN([C@@H](C)CO)C2=O,-12.9[16.7 µM],-9.2
CCNC(=O)C[C@H]1CC[C@H](NS(=O)(=O)c2ccc(C)cc2)[C@H](CO)O1,24.6[16.7 µM],1.0
C[C@@H]1CCCCO[C@H](CN(C)S(=O)(=O)c2ccccc2)[C@@H](C)CN([C@@H](C)CO)C(=O)c2cc(NC(=O)c3ccncc3)ccc2O1,16.6[16.7 µM],-7.1
Cc1ccc(S(=O)(=O)Nc2ccc3c(c2)C(=O)N([C@H](C)CO)C[C@H](C)[C@H](CN(C)C(=O)Nc2cccc4ccccc24)O3)cc1,8.2[16.7 µM],-7.4
O=C(C[C@H]1CC[C@H](NC(=O)Nc2ccccc2)[C@H](CO)O1)NCc1cccc(F)c1,2.2[16.7 µM],3.8

(continued)
SMILES | Env fusion inh | Yeast UUG start
COc1ccc(S(=O)(=O)N(C)C[C@H]2OCCCC[C@H](C)Oc3ccc(NS(C)(=O)=O)cc3C(=O)N([C@@H](C)CO)C[C@H]2C)cc1 | 0.2[16.7 µM] | 8.5
CCNC(=O)C[C@@H]1CC[C@H](NC(=O)C2CC2)[C@@H](CO)O1 | -1.7[16.7 µM] | 12.7
CO[C@@H]1CN(C)C(=O)c2ccc(NS(=O)(=O)c3cccc(F)c3)cc2OC[C@H](C)NC[C@H]1C | -1.6[16.7 µM] | -9.1
C[C@@H]1CN([C@H](C)CO)C(=O)c2cc(NC(=O)Cc3ccccc3)ccc2O[C@H]1CN(C)Cc1ccncc1 | 14.0[16.7 µM] | -7.8
C[C@@H]1CCCCO[C@@H](CN(C)S(=O)(=O)c2cn(C)cn2)[C@H](C)CN([C@@H](C)CO)C(=O)c2cc(NC(=O)CCC(F)(F)F)ccc2O1 | 25.0[16.7 µM] | 9.2
C[C@H](CO)N1C[C@H](C)[C@@H](CN(C)S(=O)(=O)c2cn(C)cn2)Oc2c(NC(=O)c3cnccn3)cccc2C1=O | -9.8[16.7 µM] | -15.9
C[C@H](CO)N1C[C@H](C)[C@H](CN(C)C(=O)C2CCC2)Oc2cc(C#CC(C)(C)O)ccc2S1(=O)=O | 9.4[16.7 µM] | 9.7
CNC[C@@H]1Oc2cc(C#Cc3ccccc3OC)ccc2S(=O)(=O)N([C@@H](C)CO)C[C@H]1C | 4.5[16.7 µM] | -0.7
O=C(Cc1ccccn1)NCC[C@H]1CC[C@H](NC(=O)CN2CCOCC2)[C@H](CO)O1 | 4.9[16.7 µM] | -1.5
C[C@H](CO)N1C[C@H](C)[C@@H](CN(C)S(C)(=O)=O)Oc2cc(C#Cc3ccccc3)ccc2S1(=O)=O | 9.1[16.7 µM] | 18.4
COc1ccc(CN(C)C[C@@H]2OCCCC[C@@H](C)Oc3ccc(NC(=O)NC4CCCCC4)cc3C(=O)N([C@H](C)CO)C[C@H]2C)cc1 | 25.4[16.7 µM] | 12.6
C[C@@H]1CCCCO[C@H](CN(C)S(=O)(=O)c2ccc(Cl)cc2)[C@H](C)CN([C@@H](C)CO)C(=O)c2cc(NS(=O)(=O)c3ccc(F)cc3)ccc2O1 | -104.4[16.7 µM] | 23.9
COc1cccc(-c2ccc3c(c2)O[C@H](CN(C)C(=O)c2ccccc2F)[C@H](C)CN([C@@H](C)CO)S3(=O)=O)c1 | 13.7[16.7 µM] | -1.5
CCC(=O)Nc1ccc2c(c1)C(=O)N(C)[C@@H]1CC[C@H](CC(=O)NCCN3CCCCC3)O[C@@H]1CO2 | -26.7[16.7 µM] | 30.9
CN(C)CC(=O)Nc1ccc2c(c1)[C@H]1C[C@H](CC(=O)NCc3ccc4c(c3)OCO4)O[C@@H](CO)[C@H]1O2 | -49.5[16.7 µM] | 0.7
CC(=O)N(C)C[C@H]1Oc2ncc(-c3cncnc3)cc2C(=O)N([C@@H](C)CO)C[C@H]1C | 0.6[16.7 µM] | -16.6
C[C@H](CO)N1C[C@H](C)[C@H](CN(C)S(C)(=O)=O)Oc2c(NS(=O)(=O)c3ccc(Cl)cc3)cccc2C1=O | 21.8[16.7 µM] | 2.6
COc1ccc(NC(=O)Nc2ccc3c(c2)C(=O)N([C@@H](C)CO)C[C@H](C)[C@H](CN(C)S(=O)(=O)c2ccc(F)cc2)OCCCC[C@@H](C)O3)cc1 | 12.2[16.7 µM] | -13.5
C[C@H](CO)N1C[C@H](C)[C@@H](CN(C)C(=O)CCC(F)(F)F)OCc2cn(nn2)CCCC1=O | 1.6[16.7 µM] | -1.1
C[C@@H]1CN([C@H](C)CO)C(=O)Cc2cc(NC(=O)CCC(F)(F)F)ccc2O[C@H]1CN(C)C(=O)Nc1ccc(C(F)(F)F)cc1 | 1.2[16.7 µM] | 4.0
O=C(N[C@H]1CC[C@@H](CCNC(=O)C2CC2)O[C@H]1CO)c1ccccn1 | -17.5[16.7 µM] | -6.4
C[C@@H]1CCCCO[C@H](CN(C)C(=O)c2ccccc2)[C@@H](C)CN([C@@H](C)CO)C(=O)c2cc(NC(=O)NC3CCCCC3)ccc2O1 | -40.6[16.7 µM] | 19.2
Cc1ccc(-c2cnc3c(c2)C(=O)N([C@@H](C)CO)C[C@@H](C)[C@H](CN(C)C(=O)Cc2ccccc2)O3)cc1 | -7.7[16.7 µM] | 35.7
O=C(C[C@H]1C=C[C@H](NS(=O)(=O)c2ccccc2)[C@@H](CO)O1)NCc1ccncn1 | 17.4[16.7 µM] | -5.3
COc1ccccc1C#Cc1ccc([C@@H]2[C@@H](C#N)N(C(=O)C3CCCCC3)[C@H]2CO)cc1 | 18.4[16.7 µM] | -15.4
CC(C)NC(=O)Nc1ccc2c(c1)CC(=O)N([C@H](C)CO)C[C@H](C)[C@@H](CN(C)Cc1ccccc1)O2 | 5.2[16.7 µM] | -8.9
O=C(C[C@@H]1C[C@H]2c3cc(NC(=O)Nc4ccccc4)ccc3O[C@H]2[C@H](CO)O1)NC1CCCC1 | -14.2[16.7 µM] | 42.4

Screening data from PubChem BioAssay.
